Screening results deposited in PubChem by National Center for Advancing Translational Sciences (NCATS).
ClpP mod: qHTS Assay for Activators of ClpP. AID 651965, 2013. Potency, µM (titrated, usually from 57.5 µM), for the others: at the top dose activity change, negative = active. 340,000 compounds, 1.9% hits. purified B. subtilis ClpP, FRET peptide cleavage, 20 min; active = well fitted falling curve with a large enough effect; inconclusive = small, poorly fitted or top-dose-only effect; inactive = no such curve, though single readings can be large or run the other way; note: potency is the fitted concentration of half-maximal effect; the source files actives as falling curves though it sought activators and does not explain the sign; nearly all actives have a fitted effect of over 65% in size; many hits overshoot -100%
Target sequence (P80244 whole entry, looked up): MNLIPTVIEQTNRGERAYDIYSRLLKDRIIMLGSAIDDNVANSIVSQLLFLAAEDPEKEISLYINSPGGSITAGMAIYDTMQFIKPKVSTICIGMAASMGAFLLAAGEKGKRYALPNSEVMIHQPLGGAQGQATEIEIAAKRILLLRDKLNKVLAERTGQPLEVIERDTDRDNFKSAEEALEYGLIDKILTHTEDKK
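FRET quenching reversal measured ClpP activation: 10 microg/mL B. subtilis ClpP at pH 8 with the FRET-FV decapeptide, read at 430 nm after 320 nm excitation. The 20-min minus 0-min signal was scaled between DMSO/no-enzyme wells and ADEP (5.8 microM final).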
PINK1 expr mod: changes PINK1 expression; PINK1 immunofluorescence, high-content cytometry, 24 h; Potency, µM (titrated, usually from 76.6 µM), without a hit: top-dose activation (PINK1 increase), usual class: activators; 410,000 compounds, 0.2% hits; AID 624263; active = well fitted activation curve with a large enough effect; inconclusive = small, poorly fitted or top-dose-only effect; inactive = flat fitted curve, though single readings scatter; cell line not stated here;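 note: potency is the fitted concentration of half-maximal effect; % of control where 0% means no effect; nearly all actives have a fitted effect of over 65% in size; a mitochondrial uncoupler was the plate control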
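Stable cell line, 250 cells/well, 12 h attachment; compounds pinned at 5 concentrations, 24 h; CCCP control. Fixed with nuclear dye, primary antibodies 12 h at 10 degrees C, secondary plus cell stain; laser-scanning cytometer read.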
TRPML1 blocker: blocks the human TRPML1 channel; activity change, negative = inhibition, % (concentration not given with the values); TRPML1-inducible cells, Ca2+ dye fluorescence, FDSS; hits give low values; inhibition of EC80 agonist-evoked calcium signal; AID 624415; 390,000 compounds, 0.02% hits; in the data active means activity change below about -50%; inconclusive means about -30% to -50%; inactive means above about -30%;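 note: stimulus is agonist 54-4 at its EC80 concentration; % is set by controls: 0 for no effect and ±100 for the full control effect; the text of the record puts the active cut at -80%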
Target sequence (Q9GZU1 whole entry, looked up): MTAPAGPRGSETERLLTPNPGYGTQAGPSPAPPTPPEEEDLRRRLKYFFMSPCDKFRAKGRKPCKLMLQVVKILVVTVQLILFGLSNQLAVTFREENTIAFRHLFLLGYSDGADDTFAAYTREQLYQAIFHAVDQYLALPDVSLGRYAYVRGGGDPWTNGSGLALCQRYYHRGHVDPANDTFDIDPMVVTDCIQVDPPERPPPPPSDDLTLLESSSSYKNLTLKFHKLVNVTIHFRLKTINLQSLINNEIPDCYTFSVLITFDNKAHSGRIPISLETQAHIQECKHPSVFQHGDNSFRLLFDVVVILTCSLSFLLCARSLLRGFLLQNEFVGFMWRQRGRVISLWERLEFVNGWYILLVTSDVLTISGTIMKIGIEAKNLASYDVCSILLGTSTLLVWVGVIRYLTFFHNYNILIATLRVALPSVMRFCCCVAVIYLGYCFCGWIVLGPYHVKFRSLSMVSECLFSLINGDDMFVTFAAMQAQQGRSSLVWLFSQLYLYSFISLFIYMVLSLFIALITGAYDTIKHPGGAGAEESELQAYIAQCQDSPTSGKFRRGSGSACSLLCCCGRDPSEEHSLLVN
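TRPML1-DL cells, Tet-induced overnight (~16 h, 37 °C) at 1,500 cells/well, were loaded with Ca8 no-wash dye plus quencher for 45-90 min at room temperature. Compounds were pinned during FDSS kinetic reading; agonist 54-4 at EC80 (4 uM final) then added.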
TRPML1 ag: human mucolipin-1 channel agonism; Q9GZU1; TRPML1-expressing cells, Ca2+ dye fluorescence, FDSS; host cell line not named in the record; reference of the full effect not given here; activation, % (test concentration not listed); 410,000 compounds, 0.12% hits; AID 624414; in the data active = activation above about 50%; inconclusive = about 30% to 50%; inactive = below about 30%; note: 0% is about no effect; the text of the record puts the active cut at 80%
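Cells: TRPML1-DL, 1X Tet inducer, ~16 h at 37 degrees C/5% CO2. Dye: ABD Ca8 no-wash + quencher, 45-90 min RT. Read: 10 s baseline, compound add, 110 s agonist phase; 54-4 EC80 (4uM final), 110 s antagonist phase.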
Sfp inh: Sfp phosphopantetheinyl transferase inhibition; Potency, µM, for the others: max response, negative = inhibition, most hits filed as inhibitors; Q9F4F7; Biochemical Sfp PPTase activity, qHTS; 310,000 compounds, 3.5% hits; active = well fitted inhibition curve with a large enough effect; inconclusive = small, poorly fitted or top-dose-only effect, or another doubt; inactive = no such curve, though single readings can be large or run the other way;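 note: the enzyme is Sfp with the accession as filed and its product quenches rhodamine fluorescence; potency is the fitted concentration of half-maximal effect; 0% = enzyme reaction without inhibitor and -100% = no enzyme wells; top concentration of the series not given in the record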
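Step 1, compound plus 15 nM Sfp-PPTase, 15 min, room temperature. Step 2, add rhodamine-CoA (5 uM) and BHQ-2-YbbR (12.5 uM). Step 3, read 525/598 nm fluorescence at 0 and 30 min.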
TRPV1 potentiator: potentiators of human vanilloid receptor 1 (TRPV1) | Q8NER1 | TRPV1-expressing cells, Fluo-8 calcium influx, capsaicin EC20 potentiation; host cell line not named in the record; control for the full effect not named in the record | potentiation, % at 8.33 µM | 320,000 compounds, 0.02% hits | AID 540277; active means potentiation above 80%; inconclusive means 30% to 80%; inactive means below 30%; note: 0% is about no effect
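Cells expressing TRPV1 were dye-loaded with Fluo-8 and read kinetically: 10 s baseline, 3 min after compound (agonist portion), then 2 min after EC20 capsaicin (allosteric enhancer portion). Calcium-bound dye fluorescence at 480/520 nm.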
Menin MLL FP FL: menin-MLL binding inhibition, fluorescein peptide | Fluorescence polarization, fluorescein-MLL peptide displacement from menin | FP activity change, % at 61.4 µM | 290,000 tested, under 10 active | AID 1766; inconclusive = falling polarisation curve, or a change in total fluorescence; inactive = total fluorescence flat and polarisation flat or rising; no compound was filed as active; the % refers to the polarisation; negative = inhibition;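 note: % of control where 0% means no effect; inhibitors lower the polarisation; unlabelled MLL peptide was the positive control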
The depositor's hits bear a star; ? = inconclusive; . = not tested or not shown; & = joins results of further samples; [ ] = another dose, or the depositor's remark.

SMILES	TRPML1 ag	TRPV1 potentiator	Sfp inh	PINK1 expr mod	ClpP mod	Menin MLL FP FL	TRPML1 blocker
Cc1ccc(CSCC(=O)NCc2ccc(F)cc2)cc1	-1.4&-0.1	-2	5%	1.5%&0.7%	-0.9%&0.8%	0.0	-14&14
COc1ccc(CCNC(=O)c2cc3c(=O)n4cccc(C)c4nc3n(Cc3ccncc3)c2=N)cc1	.	10	5%	.	.	8.1	.
CCn1c2ccccc2c2cc(/C=C3/C=Cc4ccccc43)ccc21	-0.2	.	.	10.0%	-2.0%	.	.
CCOc1ccc(N(CC(=O)Nc2cccnc2)S(=O)(=O)c2ccc(C)cc2)cc1	-0.1	-19	.	1.2%	-7.9%	.	-9
CCn1c(C)nnc1SCC(=O)NC1CCCCCC1	-0.3	24	2%	-0.3%	0.2%	.	-7
Cc1c(NC(=O)COC(=O)c2cccc(F)c2)c(=O)n(-c2ccccc2)n1C	-0.2	.	.	0.7%	-2.9%	.	-3
Fc1ccc(N2CCN(c3nc4ccccc4c4nc(-c5ccccc5)nn34)CC2)cc1	-0.9	.	.	1.4%	0.5%	.	19
S=C(NCc1ccc(Cl)cc1)Nc1ccncc1	-0.3	-5	3%	5.4%	-0.4%	.	-14
CCN(CC(=O)c1c(N)n(C)c(=O)n(C)c1=O)c1cccc2ccccc12	2.9	16	?	12%	-19%	-5.7	25
COc1ccc(C=C(C#N)C(=O)c2ccccc2)cc1	4.6	.	.	0.4%	-1.1%	.	.
O=C1CCC(/C=C/c2ccccc2)=NN1	-0.4	2	6%	-0.3%	.	-3.3	-15
O=C(N/N=C/c1ccccn1)c1ccc([N+](=O)[O-])cc1Cl	1.1	-11	50µM*	4.7%	0.2%	-4.1	-2
Cc1ccc(NC(=O)CNC(=O)CC23CC4CC(CC(C4)C2)C3)c(O)c1	1.1	-7	.	1.2%	?	.	-1
CC(C)OC(=O)c1ccc(NC(=O)c2cncc(Br)c2)cc1	-0.4	-16	11%	0.7%	.	1.7	-7
CN1CCN(c2ccc(NC(=O)c3cc(Cl)c4c(c3)OCCO4)cc2)CC1	1.5	3	.	-2.9%	.	.	11
Cc1cc(Cl)ccc1OCC(=O)N(Cc1cccs1)C1CCS(=O)(=O)C1 (configuration not stated)	1.4	3	11%	-0.8%	.	0.1	1
COCCN=c1scc(-c2cccs2)n1/N=C(\C)c1ccco1	0.0	4	-1%	-1.6%	-5.8%	4.9	-18
CCCCCOC(=O)CSc1nnc(-c2ccccc2)c(=O)[nH]1	0.2	25	10%	8.5%[38.3 µM]	0.2%	3.9	26
N#Cc1c(N)nc(Sc2ccc(Cl)cc2)c(C#N)c1-c1ccccc1Cl	0.1	-22	5%	9.4%	0.3%	0.1	-1
O=C(NCCc1ccccn1)c1cc(-c2ccc(Cl)c(Cl)c2Cl)nc2ccccc12	1.5	-12	-14%	4.0%	-2.2%	3.4	49
CN(C)CCn1c(SCc2ccccc2C#N)nc2c(sc3ccccc32)c1=O	0.0	11	-15%	1.4%	4.1%	2.7	-18
Cc1ccc(S(=O)(=O)N(C)c2ccc(OCC(=O)Nc3nnc(C4CC4)s3)cc2)cc1	0.6	14	3%	-0.2%	.	17	9
O=C(CSc1nccn1-c1ccc(Cl)cc1)N1CCCc2ccccc21	2.3	-3	-2%	-2.1%	-5.7%	3.3	-5
COC(=O)C1CCN(C(=O)CSc2nnc(-c3ccccc3)o2)CC1	-0.3	-13	.	2.6%	-2.7%	.	-2
COc1cccc(CN(C)CC(=O)Nc2cc(S(=O)(=O)N3CCCC3)ccc2Cl)c1OC	3.3	10	.	1.2%	0.8%	.	5
Cc1ccc(CNS(=O)(=O)c2c(C(=O)N3CCC(C)CC3)c(C)n(C)c2C)cc1	1.4	.	.	0.0%	-1.6%	.	-12
O=[N+]([O-])c1cccc(-c2nnc(-c3ccccc3F)o2)c1	0.0	-13	5%	0.4%	-1.1%	-1.9	-6
CCc1nc2c(OCc3ccc(OC(F)F)cc3)cccn2c1N(C)C(=O)c1cccs1	-0.6	.	.	2.1%	-0.5%	.	.
CCOc1cc(S(=O)(=O)NCc2cccs2)ccc1Cl	1.7	-12	16%	0.4%	-17%	4.4	11
CC(C)c1cc(C(=O)N/N=C/c2ccoc2)cs1	-0.2	-13	-1%	0.8%	-0.4%	.	8
CCOc1ccc2[nH]c(=O)c(CN(Cc3nnnn3Cc3ccco3)C3CCCCC3)cc2c1	0.4	-6	4µM*	1.1%	-28%	?	9
Cc1ccc2c(c1)N(CC(=O)N1CCN(c3ccccc3)CC1)C(=O)C(C)O2 (configuration not stated)	7.9	3	-3%	0.3%	.	1.9	-19
CCOC(=O)COc1ccc(S(=O)(=O)N2CCN(C(=O)OCC)CC2)cc1	1.2	-22	9%	-0.2%[38.3 µM]	1.7%	4.7	-25
CCOc1ccccc1Nc1cc(-c2ccccc2)nc(C)n1	0.8	.	.	0.8%	-18%	.	16
c1ccc(CCn2nnnc2CN2CCCc3ccccc32)cc1	3.5	-7	4%	0.0%	-3.4%	-6.9	-5
COc1cccc(OC(C)c2ccnc3nc(/N=C/N(C)C)nn23)c1 (configuration not stated)	0.0	0	12%	-2.5%[38.3 µM]	32µM*	-0.5	-6
CS(=O)(=O)CCC(C(=O)Nc1cccc(C(F)(F)F)c1)N1Cc2ccccc2C1=O (configuration not stated)	2.4	.	.	-0.7%	-1.2%	.	-21
CCCCC(=O)NC(=S)NNS(=O)(=O)c1ccccc1	-0.1	?	?	1.4%	-3.1%	-1.3	-5
CCOC(=O)c1ccc(Nc2cc(C)nc(N3CCOCC3)n2)cc1	-0.7	6	8%	2.1%	?	4.2	7
COc1ccc(CCC(=O)NCc2nc3cccnc3n2Cc2ccc(C)cc2)cc1	0.6	.	.	0.0%	-4.5%	.	11
O=C(CCN1C(=O)/C(=C/c2ccc(F)cc2)SC1=S)NC1C=CS(=O)(=O)C1 (configuration not stated)	4.4	5	11%	3.8%	0.6%	.	9
CC(C)CN(CCOc1cccc(N2C(=O)C3=C(CCCC3)C2=O)c1)CC(C)C	-0.2	4	-7%	9.3%	1.0%	5.1	-17
CC(=O)N1CCSc2ccc(S(=O)(=O)NCCc3cccc(C)c3)cc21	0.1	15	10%	2.9%	.	.	2
O=C(COC(=O)CCNS(=O)(=O)c1ccc2c(c1)OCCO2)NC1CCCc2ccccc21 (configuration not stated)	2.1	-2	15%	-1.4%	-0.2%	4.4	8
COc1ccc(/C=N/Nc2nc(C)cc(-c3ccccc3)n2)cc1OC	0.3	15	7%	2.1%	.	0.4	2
Cc1ccccc1-c1nc(NC2CCNCC2)c2ccccc2n1	.	.	5%	0.6%	.	-0.9	.
O=S(=O)(Cc1cc(Cl)nc(-c2cccnc2)n1)c1ccccc1	-0.8	26	11%	-1.0%	-0.8%	0.9	18
COc1ccc(-c2nn(C)c(=O)c3ccccc23)cc1NC(=O)Cn1nc(C)c2ccccc2c1=O	-0.1	?	8%	.	-5.5%	4.4	-3
O=C1CCc2cc(S(=O)(=O)Nc3cccc(F)c3)cc3c2N1CC3	1.0	3	.	2.6%	.	.	1
COc1cc([N+](=O)[O-])c(C)cc1NC(=O)c1ccc(OC)c(OC)c1	-0.1	.	.	2.7%	-3.5%	.	-6
O=[N+]([O-])c1cccc(-c2ccc(/C=N/NC(=S)Nc3ccccc3)o2)c1	0.2	24	-22%	?	2.0%	3.5	16
CC(=O)c1cccc(NC(=O)c2ccc(C)c(S(=O)(=O)N3CCOCC3)c2)c1	3.1	-5	9%	0.5%	.	2.6	1
COc1cc(C(=O)OCC(=O)NCC2CCCCC2)ccc1OCC(C)C	1.6	-6	.	?	.	.	4
N#CC1=C(N)N(c2ccc(Cl)cc2)C2=C(C(=O)CCC2)C1c1cc(CN2CCOCC2)cs1 (configuration not stated)	-0.4	.	.	-0.2%	-0.4%	.	-1
O=C(COC(=O)c1ccccn1)Nc1cccc(Cl)c1Cl	2.6	15	-2%	-1.5%	1.4%	-0.6	30
Cc1ccc(S(=O)(=O)N2CCN(CC(=O)N/N=C\c3ccc(O)c(O)c3)CC2)cc1	-0.4	1	?	1.6%	-17%	-0.2	-16
CC1=C(C(=O)OCC2CCCO2)C(c2ccc(C)o2)C2=C(CC(c3ccc(F)cc3)CC2=O)N1 (configuration not stated)	0.8	?	-16%	2.4%	-0.7%	1.0	-13
Cc1nccn1S(=O)(=O)c1ccc(Br)cc1Br	-0.5	-8	6%	-0.9%	-1.5%	-3.2	10
CCN(CC)c1ccc(-c2sc(Nc3ccccc3)n[n+]2-c2ccc(F)cc2)cc1	3.8	2	56µM*	?	-17%	?	6
CCc1cccc(-n2c(C)nc3c(cnn3-c3ccc(C)c(C)c3)c2=O)c1	2.5	.	.	5.5%	-6.2%	.	86

(continued)
SMILES	TRPML1 ag	TRPV1 potentiator	Sfp inh	PINK1 expr mod	ClpP mod	Menin MLL FP FL	TRPML1 blocker
Oc1ccc2ccccc2c1C1Nc2cccc3cccc(c23)N1	-0.2	10	-9%	12%	-14%	6.6	-2
COCCCNc1ccn2nc(-c3cccc(Cl)c3)cc2n1	0.7	.	.	1.1%	4.2%	.	4
COc1ccc(-c2[nH]nc3c2C(c2ccncc2)C(C#N)=C(N)O3)cc1 (configuration not stated)	-0.4	13	11%	5.8%	-2.7%	4.3	59
Nc1nnc(-c2cn(-c3ccccc3)nc2-c2ccccc2)o1	-0.2	-21	8%	5.3%[38.3 µM]	25µM*	-0.9	2
Cn1c(N2CCCCC2)cc(=O)n(C)c1=O	-0.2	?	9%	-0.9%	-1.2%	?	10
CSc1nc(NC(C)(C)C)nc(N2CCOCC2)n1	-0.9	-18	8%	-1.0%	1.5%	4.3	4
CCc1ccc(C2/C=C\CNC(c3ccccc3)C(=O)N2Cc2ccc(C)cc2)cc1 (configuration not stated)	1.1	.	-7%	.	.	0.0	-12
CC(C)(Cc1ccc(O)cc1)NC(=O)CC(=O)N/N=C/c1ccc(Cl)cc1	-0.4	11	8%	15%	0.7%	-1.0	11
CC(=O)c1cccc(NC(=O)COC(=O)COc2ccccc2C)c1	0.8	-15	7%	0.4%	1.8%	-4.7	0
Cc1cc(C(=O)CS(=O)(=O)c2ccccc2)cc(C)c1O	1.6	-29	11%	2.3%	.	-1.3	30
